# Compound activity deposited in PubChem by several laboratories.
# WNV NS2B-NS3 inh = blocks West Nile virus NS2B-NS3 protease activity | WNV NS2B-NS3 protease, fluorogenic substrate Ex360/Em465; hits give low values | z-score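 (tested at a level between 10 and 100 µM)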 | 0.18% of 65,000 active;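 active = z-score at -3 or under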;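 also: score is relative to mean and spread of the compound wells of a plate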
# Target sequence (P06935 1371-1501 limits assumed): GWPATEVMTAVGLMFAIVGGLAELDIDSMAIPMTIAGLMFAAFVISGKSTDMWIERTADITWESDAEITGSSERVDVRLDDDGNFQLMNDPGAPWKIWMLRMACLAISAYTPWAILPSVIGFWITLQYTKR
# Target sequence (P06935 1502-1679 limits assumed): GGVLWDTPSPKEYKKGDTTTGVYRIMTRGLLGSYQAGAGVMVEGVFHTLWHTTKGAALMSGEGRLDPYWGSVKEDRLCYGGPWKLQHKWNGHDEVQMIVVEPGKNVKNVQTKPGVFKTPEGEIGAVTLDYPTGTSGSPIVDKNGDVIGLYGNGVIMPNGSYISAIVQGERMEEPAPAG
# Hsc70 = Hsc70 inhibitors, probe displacement, primary screen, biochemical, fluorescence polarization (AID 568); Hsc70 fluorescence polarization, probe displacement; higher % means a stronger effect; strong numbers were not always called active; displacement, % at 20 µM; hits with a dose series show IC50 in µM; 83,000 tested, under 10 active;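 active = displacement above 50% without optical interference and an IC50 on retest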;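 also: ATPase domain with a fluorescein-tagged ATP probe; 0% = vehicle and 100% = excess ADP; read after one hour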
# MT1-MMP reporter = MT1-MMP gene expression reporter suppression – cell-based, luciferase reporter, luminescence (AID 618) | MT1-MMP promoter luciferase reporter cells, luminescence | calls from a first round at 10 µM; hits with a dose series show EC50 in µM | 0.62% of 87,000 active;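 active = over half of the reporter light lost at 10 µM or EC50 under 50 µM; inactive = the rest and hits that failed the dose series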;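 also: actives suppress MT1-MMP promoter-driven transcription so potencies describe inhibitors; HT1080 fibrosarcoma cells; overnight exposure; toxic or luciferase-blocking compounds were not removed from the actives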
# Numbers without * were called inactive; i = inactive; . = not tested or not shown.
# Order of results – WNV NS2B-NS3 inh	Hsc70	MT1-MMP reporter
Cc1nnc(SCCc2ccccc2)[nH]c1=O
    1.17	-1.6%	i
Cc1ccc(NC(=O)c2ccc(N3C(=O)C4CC=C(Cl)CC4C3=O)cc2)cc1 (centres undefined)
    .	5.1%	i
O=C(COc1cccc(C(F)(F)F)c1)Nc1ccc(S(=O)(=O)N2CCCC2)cc1
    -0.67	3.4%	i
O=C(CS(=O)(=O)Cc1ccccc1)N1CCN(C(=O)c2ccco2)CC1
    -0.71	-2.0%	i
O=S(=O)(c1ccc(Cl)cc1)N1CCN(Cc2c[nH]c3ccccc23)CC1
    .	3.2%	i
CN(C)c1cccc(C(=O)n2cc(C(=O)c3cc(F)ccc3O)cn2)c1
    0.99	0.0%	i
O=C(OCC(=O)N1CCc2ccccc21)c1ccccc1
    0.21	0.7%	i
CCOC(=O)N1CCN(C(=O)C(NC(=O)C2CCC(C)CC2)C(C)C)CC1 (centres undefined)
    0.72	-3.0%	i
CSc1ccccc1NC(=O)CN(c1cc(C)cc(C)c1)S(C)(=O)=O
    1.76	-4.2%	i
CCOC(=O)C(NC(C)=O)C(=O)O (centres undefined)
    .	2.2%	i
O=C(Nc1ccc2nc(-c3ccccc3)[nH]c2c1)c1cccs1
    .	0.8%	i
Cn1c(=O)n(Cc2ccc(F)cc2)c(=O)c2c1nc1n2CCCN1C1CCCCC1
    -0.72	2.9%	i
O=C(Nc1ccc2nsnc2c1)N1CCCCC1
    .	0.6%	i
O=C1C2CCCN2C(c2ccc(F)cc2)N1c1ccc(Cl)cc1 (centres undefined)
    -0.99	-0.5%	i
OCCCc1nc2ccccc2n1CCOc1ccccc1
    0.05	-0.6%	i
CCOC(=O)CCc1c(C)nc2cc(-c3ccccc3OC)[nH]n2c1=O
    0.79	1.0%	i
CCOc1ccc(Cn2nnc(C(=O)Nc3cc(C)cc(C)c3)c2N)cc1
    -0.09	-1.3%	i
CCCCc1cc(=O)oc2c(CN3CCCC3)c(O)c(Cl)cc12
    11.3	4.0%	i
CCOC(=O)c1oc2ccccc2c1NC(=O)c1ccc(S(=O)(=O)N(C)C)cc1
    0.57	1.8%	i
c1ccc(-n2c(-c3ccncc3)nnc2-c2cccs2)cc1
    -0.06	-4.1%	i
CC1C(=O)C(C)C(c2ccc3c(c2)OCO3)NC1c1ccc2c(c1)OCO2 (centres undefined)
    -0.1	3.7%	i
CCOC(=O)C1CCCN(c2nc3ccccc3nc2C(C#N)C(=O)OCC)C1 (centres undefined)
    1.51	-206.3%	i
CC1CCN(C(c2ccccc2)c2nnnn2C(C)(C)C)CC1 (centres undefined)
    -0.19	-3.6%	i
Cc1ccc(C2CC(c3cccc(Cl)c3)n3nc(N)nc3N2)cc1 (centres undefined)
    0.07	2.6%	i
COc1cc(OC)cc(-c2nc3nc(C)c(CCC(=O)NCc4ccco4)c(C)n3n2)c1
    0.29	2.2%	i
CCSc1nnc(-c2cccc(S(=O)(=O)N(C)C)c2)n1-c1cc(OC)ccc1OC
    0.39	-1.9%	i
CCCc1nc2ccccc2c(C(=O)OC2CCOC2=O)c1CC (centres undefined)
    0.89	-6.8%	i
Cn1c(=O)c2c(nc(N3CCOCC3)n2CCCNC2=NCCCCC2)n(C)c1=O
    .	-0.7%	i
Cc1ccc(CSc2ncnc3c2cnn3Cc2ccccc2)cc1
    .	-0.1%	i
COC(=O)C1=C(C)N=c2s/c(=C/c3cccs3)c(=O)n2C1c1cccs1 (centres undefined)
    0.54	-9.9%	i
CCc1ccc2oc(=O)cc(CN3CCOCC3)c2c1
    0.35	-1.0%	i
COc1cccc(C2CC(c3ccccc3C)n3nc(N)nc3N2)c1 (centres undefined)
    -0.32	6.9%	i
COC(=O)c1cnn(C(=O)c2cc(OC)ccc2Br)c1N
    -0.5	10.1%	i
O=C(O)CSC12CC3CC(C1)CC(C(=O)O)(C3)C2
    1.05	0.8%	i
CNc1oc(-c2ccccc2Cl)nc1C#N
    0.81	5.3%	i
CC(=O)Nc1ccc(OC(=O)c2cccs2)cc1
    -0.72	-5.1%	i
Cc1ccc(C)c(Cn2nnc3c(=O)[nH]c(C4CCCN(C(=O)C5CCCCC5)C4)nc32)c1 (centres undefined)
    -0.71	-2.7%	i
CCC1(CC)Cc2ccccc2-c2nc(NCCO)[nH]c(=O)c21
    .	0.2%	i
COC(=O)C1=C(C)NC(=O)CC1c1ccc(F)c(Br)c1 (centres undefined)
    -1.87	2.6%	i
c1coc(CNc2c3c(nc4ccccc24)CCC3)c1
    0.11	35.0%	i
N#Cc1c(N2CCCC(O)C2)nc(N)c2c(N)nc3c(c12)CC(=O)N3C12CC3CC(CC(C3)C1)C2 (centres undefined)
    .	-7.2%	i
CCN(CC)CCCN1C(=O)C(=O)/C(=C(/O)c2c(C)nc3ccccn23)C1c1ccc(C)o1 (centres undefined)
    0.94	2.0%	i
O=C(CN1CCCC1)Nc1ccc(NC(=O)Nc2ccccc2Cl)cc1
    0.53	1.9%	i
O=C(COC(=O)c1ccccc1)NCC1CCCO1 (centres undefined)
    0.54	-3.4%	i
O=C(CSc1cc(Cl)ccc1Cl)NCC1CCCO1 (centres undefined)
    0.39	-3.1%	i
CC(OC(=O)c1nsc(Cl)c1Cl)C(=O)NCc1cccs1 (centres undefined)
    0.04	3.4%	i
CC(=O)c1ccc(N2CCN(c3ccc(S(=O)(=O)N4CCN(C)CC4)cn3)CC2)cc1
    .	0.8%	i
Cc1cc(NC(=O)CSc2nnc(COc3ccccc3)n2Cc2ccco2)no1
    -1.97	-1.4%	i
O=C(CC(NS(=O)(=O)c1ccc(Cl)cc1)c1ccco1)NCc1cccnc1 (centres undefined)
    -1.93	-5.7%	i
CN(C)S(=O)(=O)c1ccc(C(=O)N2CCN=C2SCc2cccnc2)cc1
    -0.5	2.0%	i
COc1ccc(-n2c(SCC(=O)NCC3CCCO3)nc3ccccc32)cc1 (centres undefined)
    .	-2.2%	i
Cn1c(=O)cc(OCC(=O)N2CCCc3ccccc32)c2ccccc21
    -0.67	-1.6%	i
O=C(NC1CCCC1)c1cccnc1N1CCCCCC1
    1.08	2.1%	i
CCOC(=O)c1oc2ccccc2c1CSc1nnc(-c2ccco2)o1
    -0.88	-3.2%	i
CCOC(=O)Cc1csc(NC(=O)CSc2nnc(C)n2C)n1
    0.36	1.9%	i
CCOC(=O)c1c(NC(=O)CN2CCOCC2)sc2c1CCCC2=O
    -1.1	2.2%	i
Cc1c(NC(=O)NC(=O)c2ccc(F)cc2)c(=O)n(-c2ccccc2)n1C
    -0.31	9.7%	i
N#CC1=C(N)OC2=C(C(=O)CCC2)C1c1ccsc1 (centres undefined)
    0.09	2.6%	i
c1coc(-c2ncc[nH]2)c1
    -1.55	0.6%	i
Cc1ccc2nc3c(c(C(=O)O)c2c1)CCC3
    2.02	-3.3%	i

# The list goes on.
# Order of results – WNV NS2B-NS3 inh	Hsc70	MT1-MMP reporter
CCCNC(=O)C1CC(=O)N(c2ccc(OCC(=O)Nc3cc(C)cc(C)c3)cc2)C1 (centres undefined)
    1.13	4.9%	i
CCN1CCN(C(=O)C2CCN(C(=O)c3cc4sccc4n3CC)CC2)CC1
    -0.25	0.7%	i
Clc1ccc(-n2nnnc2-c2cnc(-c3ccncc3)nc2-c2cccs2)cc1
    .	5.3%	i
Cc1csc(NC(=O)CSc2ncn(-c3ccccc3)n2)n1
    .	-2.1%	i
COC(=O)[C@H](C)NC(=O)Nc1ccccc1F
    -1.08	-3.2%	i
COc1ccccc1Nc1nc(N)nc(CN2CCCCCC2)n1
    -0.62	-5.6%	i
Cc1cc(O)c(C=Nc2cccc(Cl)c2)c(=O)o1
    0.88	-1.0%	i
COc1cc(C2CC(=O)n3c(nc4ccccc43)S2)cc(OC)c1OC (centres undefined)
    .	3.0%	i
O=C(c1ccccc1)c1cc(-c2ccccc2)on1
    -0.72	-2.6%	i
Cn1c(OCc2cccnc2)nc2c1c(=O)n(Cc1ccccc1)c(=O)n2C
    0.69	-3.9%	i
Cc1cc(NC(=O)c2ccc(Br)c(S(=O)(=O)N3CCCC3)c2)no1
    0.67	-5.2%	i
CCCCN(CCCC)S(=O)(=O)c1ccc(SCC(=O)OCC)c([N+](=O)[O-])c1
    .	2.6%	i
CC(C)C(C(=O)C=[N+]=[N-])N1C(=O)c2ccccc2C1=O (centres undefined)
    -0.28	-2.2%	i
Cc1noc(NS(=O)(=O)c2ccc(N3CC(O)=C(c4ccccc4)C3=N)cc2)c1C
    1.29	3.2%	i
O=C(Nc1ccon1)c1csc2ccccc12
    -1.69	2.2%	i
COc1ccc(C2=NOC(C(=O)Nc3cc(Br)ccc3O)C2)cc1OC (centres undefined)
    -0.15	-0.8%	i
O=C(CSc1n[nH]c(-c2cccs2)n1)N1CCCc2ccccc21
    .	3.6%	i
CN1CCN(C(=O)c2ccc(CS(=O)(=O)c3c(Cl)cccc3Cl)o2)CC1
    -0.17	-0.9%	i
Cc1ccc(S(=O)(=O)N2CCC(N3CCCCCC3)CC2)cc1
    0.12	-0.6%	i
Cn1c(SCC(=O)NCc2ccccc2)nc2ccccc21
    0.55	6.7%	i
CCOC(=O)c1ccc(NCc2nc3ccccc3[nH]2)cc1
    0.3	-1.0%	i
Cn1c(CNC(=O)Nc2ccccc2Cl)nnc1SCc1ccccc1
    0.21	2.9%	i
CSC1=N/C(=C\c2ccc(Br)o2)C(=O)S1
    .	-1.1%	i
COC(CCN(C)C)(c1ccccc1)c1ccccc1
    -1.16	4.9%	i
Cc1ccc2[nH]c3c(NCc4ccco4)ncnc3c2c1
    -0.00655	-5.0%	i
O=C(Oc1cccc2cccnc12)c1cccc(-n2cnnn2)c1
    1.42	0.1%	i
COc1ccc(C2CCCN2C(=O)c2cccs2)cc1 (centres undefined)
    -1.1	-0.2%	i
CCN(CC(F)(F)C(F)F)S(=O)(=O)c1ccc(NC(=O)OC)cc1
    -0.25	-2.0%	i
O=C(C1CCC1)N1CCc2cc(S(=O)(=O)NC3CCCc4ccccc43)ccc21 (centres undefined)
    .	0.5%	i
OCCN1CCN(C(=S)c2ccc(Cl)c(Cl)c2)CC1
    0.49	-1.9%	i
COc1ccc(OC)c(NC(=O)CCN2CCN(Cc3ccccc3)CC2)c1
    -0.83	-0.5%	i
O=C(O)C(CCCCN1C(=O)c2ccccc2C1=O)N1C(=O)c2ccccc2C1=O (centres undefined)
    -1.56	7.6%	i
COc1ccc(CCNc2nc(C)cc(=O)[nH]2)cc1OC
    .	-3.7%	i
Cc1ccc(NC(=O)CS(=O)CC(=O)Nc2cccc(C)c2C)cc1F (centres undefined)
    1.21	7.0%	i
CCCn1nnnc1SCC(=O)N1CCCc2ccccc21
    .	-3.3%	i
COc1cc2c(cc1OC)C(/C(C#N)=N\O)=NC(C)(C)C2
    -0.8	0.2%	i
CCn1c(CSc2nc3ccccc3s2)n[nH]c1=S
    .	-0.4%	i
c1cc2nnnn2nc1N1CCCCC1
    -0.21	-4.1%	i
CNC(=O)Nc1cccc(NC(=O)NC)n1
    -0.25	-1.5%	i
O=S(=O)(c1cccc(-c2nc3ccccc3s2)c1)N1CCCC1
    -1.41	3.4%	i
Cc1ccc(-c2noc(CCC(=O)N(C)c3ccccc3C)n2)cc1
    0.43	6.3%	i
Brc1ccc(CSc2nnc(Cc3c[nH]c4ccccc34)o2)cc1
    -2.06	-2.1%	i
COc1ccc(C(=O)C2CCN(C(=O)c3ccc(C)cc3)CC2)cc1
    .	4.1%	i
O=C(Nc1nc(-c2ccccn2)cs1)C1CC1
    0.13	4.3%	i
CC1(C)CC(=O)C=C(NC2CCCCCCC2)C1
    .	1.5%	i
Cc1cc(=O)oc(C)c1C(=O)OCC(=O)c1ccccc1
    0.67	0.4%	i
Cc1cc(-c2c(C)n([O-])c(C)c(C)[n+]2=O)ccc1F
    0.39	4.0%	i
COc1ccc(Nc2oc(COc3ccc(OC)cc3)nc2C#N)cc1
    .	-3.2%	i
CCC(Sc1nnc(C)s1)C(=O)Nc1nccs1 (centres undefined)
    0.31	-1.7%	i
Cc1ccnc(SCC(=O)N2CCN(c3cccc(Cl)c3)CC2)n1
    -0.36	1.0%	i

# Exported in CSV form: entries from further up.
smiles,WNV NS2B-NS3 inh,Hsc70,MT1-MMP reporter
CC1CCN(C(c2ccccc2)c2nnnn2C(C)(C)C)CC1 (centres undefined),-0.19,-3.6%,i
CCN(CC)CCCN1C(=O)C(=O)/C(=C(/O)c2c(C)nc3ccccn23)C1c1ccc(C)o1 (centres undefined),0.94,2.0%,i
CCCc1nc2ccccc2c(C(=O)OC2CCOC2=O)c1CC (centres undefined),0.89,-6.8%,i
O=S(=O)(c1ccc(Cl)cc1)N1CCN(Cc2c[nH]c3ccccc23)CC1,.,3.2%,i
COc1cc(OC)cc(-c2nc3nc(C)c(CCC(=O)NCc4ccco4)c(C)n3n2)c1,0.29,2.2%,i
CC1C(=O)C(C)C(c2ccc3c(c2)OCO3)NC1c1ccc2c(c1)OCO2 (centres undefined),-0.1,3.7%,i
